Source: PubChem BioAssay
HIV Env fusion – inhibitors of HIV-1 Env-driven cell-cell fusion, primary screen, HeLa-JRFL effector, CEM21 target cells, luciferase; inhibition, % at 12.3 µM; hit rate 1.1% among 360,000;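 active = mean replicate inhibition score of at least 50 and every replicate individually at or above 50; inconclusive = only one of the two criteria met; inactive = mean below 50 and not all replicates reaching 50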;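 also: 0% = plate neutral controls and 100% = maraviroc near 300 nM; one replicate is shown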
Yeast UUG start – modulators of yeast start codon fidelity, primary screen, whole organism, S. cerevisiae, single point, plate reader | S. cerevisiae UUG-firefly luciferase reporter, luminescence/redox ratio | activity score, % at 18.7 µM | hit rate 0.13% among 350,000 | AID 602363, 2012;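 active = replicate mean at a twofold rise or more, about +100% in these data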;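 also: firefly luciferase made from a UUG start codon reports start codon fidelity; reporter light over untreated wells divided by growth signal over untreated wells; some hits fall short of that in this replicate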
Rce1 inhib – yeast Rce1p protease inhibitors, primary screen, biochemical, fluorescence, cell-free homogeneous; CAAX prenyl protease 2 (Saccharomyces cerevisiae (strain ATCC 204508 / S288c)), Q03530; yeast membranes, quenched prenylated peptide cleavage fluorescence; calls only; hit rate 0.27% among 290,000; AID 2563, 2010;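 active = fall in fluorescence gain of 50% or more versus controls, with final raw signal at or below 3038400; inconclusive = same 50% fall but final raw signal above 3038400; inactive = fall in fluorescence gain under 50%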;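 also: plate controls were neutral control wells for no effect and wells lacking membranes for full effect; tested at 10 µM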
MT1-MMP act inh – blockers of MT1-MMP proenzyme processing, primary screen, HT1080 RFP-PRO-GFP cells, GFP/RFP fluorescence. hit rate 0.061% among 360,000. Matrix metalloproteinase-14 (Homo sapiens), P50281. GFP/RFP ratio change, % at 20 µM. GFP/RFP ratio fluorescence, overnight; percent of plate control window, DMSO zero;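 active = GFP/RFP ratio change of at least 30% with cell ATP level not reduced by more than half and red fluorescence within 50% of control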; also: strong numbers were not always called active
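Assay system: HT1080 RFP-PRO-GFP cells | Dosing: 20 µM single dose, 1% DMSO | Incubation: Cells overnight before dosing, compound overnight, 37 °C, 5% CO2 | Evaluation: GFP/RFP fluorescence ratio | Control set: DMSO-only wells and HT1080 RFP-L50D-GFP cell wells as references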
eIF4H FP inh – human eIF4H binding inhibitors, primary screen, translation initiation inhibitor project, biochemical, uHTS, fluorescence polarization. inhibition, % at 35 µM. eIF4H fluorescence polarization binding assay. hit rate 0.94% among 290,000. Eukaryotic translation initiation factor 4H (Homo sapiens), Q15056;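 active = 50% or more with normal probe brightness, or confirmed in later tests; inconclusive = above 50% with abnormal brightness, or retests that disagree; inactive = below 50% or failed in later tests; about a fifth of its hits are not listed in these tables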;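 also: calls also rest on retests at 20 µM and on dose response follow-up; 0% = protein and probe with vehicle and 100% = probe without protein; strong numbers were not always called active; many hits fall short of the cut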
PABP polyA inh – PABP poly(A) RNA binding inhibitors, primary screen, biochemical, fluorescence polarization, uHTS. Polyadenylate-binding protein 1 (Homo sapiens), P11940. inhibition, % at 35 µM. hit rate 1% among 290,000. AID 2014, 2009;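 active = 50% or more with normal probe brightness, or confirmed in later tests; inconclusive = above 50% with abnormal brightness, or retests that disagree; inactive = below 50% or failed in later tests; about a fifth of its hits are not listed in these tables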;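 also: calls also rest on retests at 20 µM and on dose response follow-up; controls were probe without protein and protein plus probe with vehicle; some compounds called inactive have numbers as strong as hits; many hits fall short of the cut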
Target sequence (P11940 whole entry, looked up): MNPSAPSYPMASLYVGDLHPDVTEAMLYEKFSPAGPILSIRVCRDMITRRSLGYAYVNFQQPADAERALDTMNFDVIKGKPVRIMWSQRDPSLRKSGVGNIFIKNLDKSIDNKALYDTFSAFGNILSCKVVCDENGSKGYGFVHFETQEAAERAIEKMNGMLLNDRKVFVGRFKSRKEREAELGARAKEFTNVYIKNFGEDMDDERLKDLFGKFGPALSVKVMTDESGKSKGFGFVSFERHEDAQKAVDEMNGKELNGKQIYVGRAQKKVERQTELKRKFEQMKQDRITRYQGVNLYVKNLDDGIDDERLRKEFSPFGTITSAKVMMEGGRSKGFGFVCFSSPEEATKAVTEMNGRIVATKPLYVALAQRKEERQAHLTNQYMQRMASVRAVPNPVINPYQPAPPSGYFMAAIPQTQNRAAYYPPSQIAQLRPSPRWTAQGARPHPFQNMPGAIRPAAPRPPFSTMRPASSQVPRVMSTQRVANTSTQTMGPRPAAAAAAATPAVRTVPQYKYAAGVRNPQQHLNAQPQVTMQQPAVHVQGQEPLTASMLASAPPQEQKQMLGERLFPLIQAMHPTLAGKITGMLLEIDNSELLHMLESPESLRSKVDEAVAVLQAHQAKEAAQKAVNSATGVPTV
CSC inhib – cancer stem cell viability inhibitors, primary screen, luminescence. cancer stem cell-like cells viability. inhibition, % at 7.5 µM. hit rate 1.1% among 300,000. AID 2717, 2010;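 active = mean at 75% or more and at least half the replicates too; inconclusive = mean and replicates disagree; tested in HMLE shEcad cells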;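 also: 0% = median of negative and 100% = median of positive control wells; the first replicate is given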
MT1-MMP act inh RFP – also measured in MT1-MMP act inh; calls as there; RFP signal change, %; measured here: RFP expression control read;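 0 = vehicle wells; hits needed this value within 50% of zero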
* marks the source's active call; other numbers are inactive results; i = inactive; ? = inconclusive; / = no result given. An excerpt; rates above refer to the full screens.

canonical_smiles,HIV Env fusion,Yeast UUG start,Rce1 inhib,MT1-MMP act inh,MT1-MMP act inh RFP,eIF4H FP inh,PABP polyA inh,CSC inhib
Cc1ccc2c(c1)-c1c(ssc1=S)C(C)(C)N2C(=O)CN1C(=O)c2ccccc2C1=O,/,-14,i,-14,-6,-8,-3,4
CCc1nnc(NC(=O)C2CCN(c3cnccn3)CC2)s1,-12,-19,i,14,7,9,-3,-12
CCCn1nnc2c(=O)oc3ccccc3c21,1,/,i,-1,4,-6,-8,-9
CNC(=O)C(Sc1ccccc1)c1ccccc1 (centres undefined),-11,-22,/,-3,2,1,1,-9
COc1ccc(C(=O)Nc2ccc(NC(=O)C3CC3)nc2)cc1,6,-17,i,4,-2,-5,5,2
CCOC(=O)Cn1c(=O)c2c(nc(N3CCCCC3)n2C)n(C)c1=O,/,-32,i,3,3,2,-1,-1
O=S1(=O)[C@H]2C[C@H](CO)O[C@@]2(CO)CN1Cc1ccc(-c2cccc(Cl)c2)cc1,-10,0,/,-1,-7,/,/,/
CC(C)Cn1c(=O)c2sccc2n2c(CCCC(=O)N3CCC(N4CCCCC4)CC3)nnc12,0,-4,i,3,2,-1,2,-6
NS(=O)(=O)c1cccc(NC(=O)COC(=O)Cc2ccc(S(=O)(=O)N3CCCCC3)s2)c1,-4,/,/,-1,6,14,-5,-26
Cc1csc(=O)n1CC(=O)OCC(=O)NCc1ccc(Cl)cc1Cl,/,/,i,3,5,/,/,-21
C[C@@H]1CN(Cc2nc(-c3cnccn3)no2)C[C@H](C)O1,0,/,i,-1,1,5,-2,-13
O=C(NCc1ccc2c(c1)OCO2)C1CC(=O)N(CCc2ccc(F)cc2)C1 (centres undefined),-9,-5,i,-1,0,-3,18,-19
COc1ccc(/C=C(/NC(=O)c2ccco2)C(=O)NCc2ccco2)cc1OC,5,-4,i,3,6,-1,8,10
COc1cccc(C2Nc3c(F)cc(Br)cc3C3C=CCC32)c1OC (centres undefined),-14,-7,i,8,4,-11,0,58
Cc1nc2scc(-c3cccs3)c2c(=O)n1N,-11,/,i,5,8,11,2,10
S=c1[nH]nc(COc2ccccc2)n1/N=C/c1ccccc1Cl,-7,-28,i,1,2,-2,2,/
O=C(N/N=C/C=C/c1ccccc1)c1cc(C2CC2)[nH]n1,-12,-9,i,2,-2,-2,3,-1
OC(C#CCN1CCCCC1)(c1ccccc1)c1ccccc1,9,-10,i,-1,-2,-6,-6,-1
Cc1cc(C)c(NC(=O)Cn2nnc(C(=O)NCc3ccco3)c2N)c(C)c1,7,/,i,9,0,-2,16,0
O=C(CSc1nnc(NC(=O)CN2CCOCC2)s1)Nc1ccccc1,/,-8,i,-5,-3,-9,2,/
CC(C)N1C(=O)CC(Nc2cccc3cccc(N)c23)C1=O (centres undefined),-1,/,/,2,7,?,-6,/
CCOc1ccc(/C=N/n2cnnc2)cc1,/,/,i,1,-2,-4,-12,-13
CCOC(=O)COc1ccc(/C=C2\NC(=S)N(CC)C2=O)cc1,5,/,i,-3,6,0,7,6
CSc1nc(C2CC2)cc(-c2cccs2)c1C#N,/,-9,i,-15,-17,-18,-3,6
CC(=O)/C(=C/N(C)C)Sc1ccc(C)cc1,/,-9,i,5,-6,-2,13,-7
CC(=O)Nc1ccc(S(=O)(=O)Nc2nc3ccccc3nc2N2CCCCCC2)cc1,-7,4,i,3,4,-2,-2,-12
O=C(NCCc1ccccc1)c1ccc(CS(=O)(=O)c2ccc(Br)cc2)o1,-2,-12,i,-2,-4,-8,17,-2
CCOC(=O)c1cnn(-c2ncnc3sc(CC)cc23)c1N,/,1,i,-1,6,-5,4,/
COc1cccc(N2CCN(CC(=O)Nc3ccccc3C(=O)NCCc3ccccc3)CC2)c1,-4,2,/,-1,-6,/,/,-3
CCN(Cc1ccc2c(c1)OCCO2)C(=O)CSc1nc(C)nc2sc(C)c(C)c12,4,-12,/,2,0,/,/,-3

A portion from further up, for reference:
canonical_smiles,HIV Env fusion,Yeast UUG start,Rce1 inhib,MT1-MMP act inh,MT1-MMP act inh RFP,eIF4H FP inh,PABP polyA inh,CSC inhib
Cc1ccc2c(c1)-c1c(ssc1=S)C(C)(C)N2C(=O)CN1C(=O)c2ccccc2C1=O,/,-14,i,-14,-6,-8,-3,4
CCc1nnc(NC(=O)C2CCN(c3cnccn3)CC2)s1,-12,-19,i,14,7,9,-3,-12
CCCn1nnc2c(=O)oc3ccccc3c21,1,/,i,-1,4,-6,-8,-9

(next part)
| Molecule | HIV Env fusion | Yeast UUG start | Rce1 inhib | MT1-MMP act inh | MT1-MMP act inh RFP | eIF4H FP inh | PABP polyA inh | CSC inhib |
| --- | --- | --- | --- | --- | --- | --- | --- | --- |
| CCc1nc2ccc(C(=O)Nc3cc(-c4ccccc4)ccc3OC)cn2c1N(C)Cc1ccc(OC)cc1 | 23 | 3 | / | 0 | -4 | / | / | / |
| COc1ccc2sc(N(CCCN(C)C)C(=O)c3ccc(S(=O)(=O)N(C)C4CCCCC4)cc3)nc2c1 | / | 13 | i | -3 | -4 | / | / | 1 |
| CSCC[C@H](Nc1ncnc2sc(C)c(C)c12)C(=O)O | / | / | i | 2 | 6 | -7 | 12 | -9 |
| CC1(C(=O)O)CCC(C(=O)Nc2ccc3ccccc3c2)C1(C)C (centres undefined) | -2 | -1 | i | 3 | 6 | 5 | -1 | -10 |
| CC1(C)Cc2ccccc2C(CSc2ccccc2C(=O)O)=N1 | -14 | -8 | i | -17 | -3 | 6 | 19 | 76* |
| O=C(NC(=S)Nc1ccccc1N1CCCC1)c1cccc(F)c1 | -19 | / | i | 6 | 3 | 6 | 11 | 9 |
| CCOC(=O)N1CCC(NC(=O)CCc2c(C)nc3c(c(C)nn3-c3ccccc3)c2C)CC1 | -15 | 4 | / | 2 | 3 | / | / | / |
| CC(C(=O)NCC1CCCCC1)N1CCN(S(=O)(=O)/C=C/c2ccccc2)CC1 (centres undefined) | 9 | / | i | -2 | -2 | -9 | -12 | 14 |
| CC(=O)c1ccc(NC(=O)COC(=O)/C=C/c2cccs2)cc1 | 26 | -2 | / | -3 | 0 | / | / | -2 |
| O=C(CSc1ccc(-c2cccc([N+](=O)[O-])c2)nn1)N1CCCC1 | 0 | / | i | 0 | -2 | -1 | -1 | 21 |
| CCCNC(=O)Cc1cc(=O)[nH]c(=O)[nH]1 | 12 | -8 | i | -3 | 3 | -3 | -11 | -17 |
| Cc1cccc(C)c1NC(=O)C1CC(=O)N(C(C)C)C1 (centres undefined) | -243 | 18 | i | 2 | 8 | -7 | -6 | -9 |
| O=C(c1ccc(Cl)cc1)c1cnc(-c2ccc(Cl)cc2)s1 | 9 | -24 | i | 0 | 3 | -5 | -6 | -4 |
| CN(C(=O)CSc1nnc(-c2ccco2)n1C)C1CCCCC1 | -6 | -1 | / | 6 | 2 | / | / | / |
| CN(c1ccc(OCC(=O)OCC(=O)Nc2ccc(Br)cc2)cc1)S(=O)(=O)c1cccs1 | -7 | -15 | i | -2 | 2 | -9 | 41 | 21 |
| Clc1ncc(CN2CCN(Cc3ccccc3)CC2)s1 | / | -10 | i | 3 | 3 | -5 | 0 | -1 |
| O=C(Cn1cc(C(F)(F)F)ccc1=O)N/N=C/c1ccccc1O | 14 | -12 | i | -1 | -3 | 12 | -1 | 15 |
| Brc1cccc(OCCN2CCOCC2)c1 | 1 | -8 | i | 6 | 5 | 6 | 6 | -12 |
| COC(=O)c1[nH]c2cccc(OC)c2c1NC(=O)CN1CCN(c2cccc(OC)c2)C(C)C1 (centres undefined) | / | 7 | i | -6 | -8 | -2 | -13 | -16 |
| Nc1ccc(C=Cc2ccc(N)cc2)cc1 | -21 | -14 | / | 3 | -3 | / | / | / |
| COc1cccc(CNC(=O)CCS(=O)(=O)c2ccc3c(c2)NC(=O)C(C)S3)c1 (centres undefined) | 3 | -16 | i | -9 | -4 | -1 | 11 | -8 |
| Cc1nc(Cl)c(Cl)n1CCOc1ccccc1 | -112 | -20 | i | 0 | -1 | -8 | -8 | -11 |
| C#CCNC(=O)C1=C[C@@H](c2coc3ccccc3c2=O)C[C@@H](OCCCCO)O1 | 21 | -8 | i | 1 | 4 | -2 | -3 | -14 |
| NC(=O)c1cnn2c1NC(c1ccc(F)cc1)CC2C(F)(F)F (centres undefined) | -116 | / | i | 2 | 1 | -7 | 8 | 1 |
| CCOC(=O)C1CCN(C2=C(NS(=O)(=O)c3ccc(Cl)cc3)C(=O)c3ccccc3C2=O)CC1 | -63 | / | i | 0 | 0 | 5 | 13 | 10 |
| CCN(CC)Cc1nc2sc(C)c(C)c2c(=O)[nH]1 | -39 | -4 | i | 0 | 6 | 3 | -1 | -3 |
| CC(=O)c1sc(Nc2ccc3c(c2)OCO3)nc1C | -38 | -8 | / | 2 | 2 | / | / | / |
| COc1ccc(/C=C/C(=O)OCn2c(SC)nnc(C)c2=O)cc1OC | -1 | / | i | 1 | 0 | 3 | 3 | -3 |
| Fc1ccccc1-c1nnc2ccc3ccccc3n12 | -7 | 0 | i | 0 | -3 | -9 | -2 | -16 |
| C/C(=N\Nc1ccc([N+](=O)[O-])cc1)c1ccc(N2CCOCC2)cc1 | -14 | -6 | i | 3 | 3 | -7 | -8 | -8 |
| CC(=O)Nc1c(-c2cc(=O)oc3cc(C)ccc23)oc2ccccc12 | 10 | 7 | i | -4 | -2 | -4 | 7 | / |
| CCOC(=O)C1CCCN(C(=O)c2ccc(OC)c([N+](=O)[O-])c2)C1 (centres undefined) | 0 | -11 | i | 6 | 5 | -8 | -1 | -1 |
| CCc1nc2c(OCC(N)=O)cccn2c1N(C)C(=O)c1ccc(OC)cc1 | 9 | -4 | / | 1 | 5 | / | / | / |
